High-throughput results (PubChem)
TRPV1 PAM = enhances activation of the human vanilloid receptor TRPV1 | Q8NER1 | TRPV1-expressing cells, Fluo-8 calcium influx, capsaicin EC20 potentiation; host cell line not named in the record; control for the full effect not named in the record | potentiation, % at 8.33 µM | 320,000 tested, 0.02% active; active means potentiation above 80%; inconclusive means 30% to 80%; inactive means below 30%; also: 0% is about no effect
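TRPV1-expressing cells were cultured overnight at 35.5C and loaded with Fluo-8 calcium dye for 40 to 90 min at room temperature. After a 10 s baseline, compound was added and calcium influx was read kinetically for 3 min (ex 480/em 520 nm).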
ClpP mod = qHTS Assay for Activators of ClpP. Potency, µM (titrated, usually from 57.5 µM), for the others: at the top dose activity change, negative = active. purified B. subtilis ClpP, FRET peptide cleavage, 20 min. ATP-dependent Clp protease proteolytic subunit (Bacillus subtilis (strain 168)), P80244. 340,000 tested, 1.9% active; active = well fitted falling curve with a large enough effect; inconclusive = small, poorly fitted or top-dose-only effect; inactive = no such curve, though single readings can be large or run the other way; also: potency is read from the fitted curve at half-maximal effect; the source files actives as falling curves though it sought activators and does not explain the sign; nearly all actives have a fitted effect of over 65% in size; many hits overshoot -100%
Target sequence (P80244 whole entry, looked up): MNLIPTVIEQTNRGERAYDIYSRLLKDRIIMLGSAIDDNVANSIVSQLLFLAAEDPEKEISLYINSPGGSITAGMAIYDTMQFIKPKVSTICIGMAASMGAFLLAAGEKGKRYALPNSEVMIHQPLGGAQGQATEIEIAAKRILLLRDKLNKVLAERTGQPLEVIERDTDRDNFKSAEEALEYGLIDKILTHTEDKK
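ClpP 10 microg/mL final, pH 8 Tris/KCl buffer with BSA, glycerol, Tween-20; compound pinned in; FRET-FV substrate; RT 20 min; Ex320/Em430; ΔFRET vs ADEP 5.8 microM, DMSO, no enzyme.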
TRPML1 blocker = inhibitors of human TRPML1 channel. 390,000 tested, 0.02% active. Q9GZU1. activity change, negative = inhibition, % (test concentration not listed). TRPML1-inducible cells, Ca2+ dye fluorescence, FDSS; stronger effect = lower value; inhibition of EC80 agonist-evoked calcium signal; in the data active means activity change below about -50%; inconclusive means about -30% to -50%; inactive means above about -30%;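 also: stimulus is agonist 54-4 at its EC80 concentration; % is scaled to controls: 0 for no effect and ±100 for the full control effect; compound concentration not given in the record; the text of the record puts the active cut at -80%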
Target sequence (Q9GZU1 whole entry, looked up): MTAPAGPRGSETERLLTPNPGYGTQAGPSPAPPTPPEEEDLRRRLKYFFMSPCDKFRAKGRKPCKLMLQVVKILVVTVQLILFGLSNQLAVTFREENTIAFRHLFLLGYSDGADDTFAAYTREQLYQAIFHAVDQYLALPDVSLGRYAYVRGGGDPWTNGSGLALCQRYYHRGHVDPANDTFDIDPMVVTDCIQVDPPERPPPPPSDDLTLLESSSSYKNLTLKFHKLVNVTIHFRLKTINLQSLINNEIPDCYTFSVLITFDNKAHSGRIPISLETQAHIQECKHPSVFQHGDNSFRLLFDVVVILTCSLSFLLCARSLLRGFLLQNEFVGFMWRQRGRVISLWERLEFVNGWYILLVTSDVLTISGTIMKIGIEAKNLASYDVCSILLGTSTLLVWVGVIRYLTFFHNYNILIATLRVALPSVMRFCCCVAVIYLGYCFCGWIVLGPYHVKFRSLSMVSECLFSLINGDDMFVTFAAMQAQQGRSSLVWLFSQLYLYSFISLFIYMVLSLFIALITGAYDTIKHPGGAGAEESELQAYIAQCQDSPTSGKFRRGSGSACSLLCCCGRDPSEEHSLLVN
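TRPML1-DL cells, Tet-induced overnight (~16 h, 37 °C) at 1,500 cells/well, were loaded with Ca8 no-wash dye plus quencher for 45-90 min at room temperature. Compounds were pinned during FDSS kinetic reading; agonist 54-4 at EC80 (4 uM final) then added.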
Sfp inh = blocks B. subtilis Sfp PPTase activity | Q9F4F7 | 310,000 tested, 3.5% active | Biochemical Sfp PPTase activity, qHTS | AID 1490 | Potency, µM, inactives show max response, negative = inhibition, hits mostly inhibitors; active = well fitted inhibition curve with a large enough effect; inconclusive = small, poorly fitted or top-dose-only effect, or another doubt; inactive = no such curve, though single readings can be large or run the other way;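 also: the enzyme is Sfp with the accession as filed and its product quenches rhodamine fluorescence; potency is read from the fitted curve at half-maximal effect; 0% = enzyme reaction without inhibitor and -100% = no enzyme wells; top concentration of the series not given in the record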
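Step 1, compound plus 15 nM Sfp-PPTase, 15 min, room temperature. Step 2, add rhodamine-CoA (5 uM) and BHQ-2-YbbR (12.5 uM). Step 3, read 525/598 nm fluorescence at 0 and 30 min.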
TRPML1 agonist = activates the human TRPML1 channel; 410,000 tested, 0.12% active; activation, % (concentration not given with the values); TRPML1-expressing cells, Ca2+ dye fluorescence, FDSS; host cell line not named in the record; reference of the full effect not given here; Q9GZU1; AID 624414; in the data active = activation above about 50%; inconclusive = about 30% to 50%; inactive = below about 30%; also: 0% is about no effect; the text of the record puts the active cut at 80%
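Cells: TRPML1-DL, 1X Tet inducer, ~16 h at 37 degrees C/5% CO2. Dye: ABD Ca8 no-wash + quencher, 45-90 min RT. Read: 10 s baseline, compound add, 110 s agonist phase; 54-4 EC80 (4uM final), 110 s antagonist phase.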
Menin MLL FP FL = menin-MLL binding inhibition, fluorescein peptide. Fluorescence polarization, fluorescein-MLL peptide displacement from menin. FP activity change, % at 61.4 µM. 290,000 tested, under 10 active; inconclusive = falling polarisation curve, or a change in total fluorescence; inactive = total fluorescence flat and polarisation flat or rising; no compound was filed as active; the % refers to the polarisation; negative = inhibition;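 also: % of control where 0% means no effect; inhibitors lower the polarisation; unlabelled MLL peptide was the positive control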
PINK1 expr mod = PINK1 expression modulation | PINK1 immunofluorescence, high-content cytometry, 24 h | Potency, µM (doses to about 76.6 µM), inactives show at the highest dose activation (PINK1 increase), actives largely listed as activators | 410,000 tested, 0.2% active; active = well fitted activation curve with a large enough effect; inconclusive = small, poorly fitted or top-dose-only effect; inactive = flat fitted curve, though single readings scatter; cell line not stated here;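 also: potency is read from the fitted curve at half-maximal effect; % of control where 0% means no effect; nearly all actives have a fitted effect of over 65% in size; a mitochondrial uncoupler was the plate control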
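Decision-based qHTS: stable cells, 24 h exposure to five compound concentrations, CCCP as control. Fixed cells stained for PINK1 plus nuclear, mitochondrial and cell markers, cytometer read.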
An asterisk follows results filed as active; & = joins results of further samples; ! = a repeat was not active; [ ] = another dose, or the depositor's remark.

What do the screens show for `CS(=O)(=O)c1cnc(-c2ccccc2)nc1-c1ccccc1Cl`?
TRPV1 PAM: inconclusive; TRPML1 blocker: 8.2; Sfp inh: -10.5%; TRPML1 agonist: 1.3; Menin MLL FP FL: 2.0; PINK1 expr mod: -0.4%

What do the screens show for `Cc1ccnc(NC(=O)c2cc3ccccc3oc2=O)c1`?
TRPV1 PAM: -14.8; ClpP mod: -0.1%; TRPML1 blocker: -6.9; Sfp inh: 2.9%; TRPML1 agonist: 0.0; Menin MLL FP FL: -1.5; PINK1 expr mod: -1.4%

How did CCCCNC(=O)c1ccc2c(c1)S(=O)(=O)c1ccccc1C2=O do in these assays?
TRPV1 PAM: inconclusive; ClpP mod: 0.0%; TRPML1 blocker: 24.6; Sfp inh: 6.1%; TRPML1 agonist: 1.3; PINK1 expr mod: 0.4%

What do the screens show for `COC(=O)Cc1c(C(=O)OC)nnn1-c1ccc(OC)cc1`?
TRPV1 PAM: 5.7; TRPML1 blocker: 4.7; Sfp inh: 14.3%; TRPML1 agonist: -0.2; Menin MLL FP FL: 0.7; PINK1 expr mod: -1.0%

How did O=C1C2CC=CCC2C(=O)N1c1ncn[nH]1 (configuration not stated) do in these assays?
TRPV1 PAM: 1.0; ClpP mod: -2.9%; TRPML1 blocker: 43.6; Sfp inh: -5.8%; TRPML1 agonist: 1.4; Menin MLL FP FL: 0.6; PINK1 expr mod: 4.3%[38.3 µM]

What do the screens show for `COC(CN(C(=O)CCl)C(C(=O)NC1CCCCC1)c1ccc(Cl)cc1)OC` (configuration not stated)?
TRPV1 PAM: -1.1; ClpP mod: -4.6%; TRPML1 blocker: 2.2; Sfp inh: 7.2%; TRPML1 agonist: -0.3; Menin MLL FP FL: 3.5; PINK1 expr mod: -1.7%

How did OC(COc1ccccc1)CN1CCN(c2ncccn2)CC1 (configuration not stated) do in these assays?
TRPV1 PAM: -0.7; ClpP mod: -2.4%; TRPML1 blocker: 17.7; Sfp inh: 12.7%; TRPML1 agonist: -0.3; Menin MLL FP FL: -0.1; PINK1 expr mod: 3.0%[38.3 µM]

Results for O=C(NCCC1=CCCCC1)c1ccc2c(c1)N(Cc1ccc(Cl)cc1)C(=O)c1ccccc1S2=O (configuration not stated) ?
ClpP mod: -1.9%; TRPML1 blocker: 5.8; TRPML1 agonist: -0.7; PINK1 expr mod: -0.1%

Results for CCNc1nc(C23CC4CC(CC(C4)C2)C3)cs1 ?
TRPV1 PAM: -13.1; TRPML1 blocker: 11.6; Sfp inh: 2.9%; TRPML1 agonist: 0.9; Menin MLL FP FL: -3.3; PINK1 expr mod: 19.8%

What do the screens show for `O=C(NCc1ccccc1)c1cc2nc(C3CC3)cc(C(F)(F)F)n2n1`?
TRPV1 PAM: 0.9; ClpP mod: 0.5%; TRPML1 blocker: -1.0; Sfp inh: 23.1%; TRPML1 agonist: -0.4; Menin MLL FP FL: 0.0; PINK1 expr mod: -1.2%

What do the screens show for `CC(OC(=O)c1cc2ccccc2[nH]1)C(=O)N(C)c1ccccc1` (configuration not stated)?
ClpP mod: 4.3%; TRPML1 blocker: -13.9; TRPML1 agonist: 0.0; PINK1 expr mod: 0.4%

Results for CCCc1c(C(=O)N/N=C(\C)c2ccccc2O)nnn1-c1nonc1N ?
ClpP mod: -0.2%; TRPML1 blocker: -3.5; TRPML1 agonist: 0.4; PINK1 expr mod: 2.2%

Results for COc1ccc(C2/C(=C(/O)c3ccc(C)cc3)C(=O)C(=O)N2C)cc1 (configuration not stated) ?
TRPV1 PAM: 15.8; ClpP mod: -0.6%; TRPML1 blocker: -8.2; Sfp inh: 10.6%; TRPML1 agonist: 1.7; Menin MLL FP FL: 5.3; PINK1 expr mod: -1.3%

How did C=CCc1ccc(OCCCCNC(C)CC)c(OC)c1 (configuration not stated) do in these assays?
TRPV1 PAM: 8.3; ClpP mod: -1.9%; TRPML1 blocker: 3.2; Sfp inh: -8.6%; TRPML1 agonist: 0.1; Menin MLL FP FL: 6.3; PINK1 expr mod: 1.2%

How did CCOC(=O)C1=NN(c2ccc(OC)cc2)C2C(=O)N(c3ccccc3OC)C(=O)C12 (configuration not stated) do in these assays?
TRPV1 PAM: 4.8; ClpP mod: -7.9%; TRPML1 blocker: -10.9; Sfp inh: 3.2%; TRPML1 agonist: 0.3; Menin MLL FP FL: 1.7; PINK1 expr mod: -0.6%

What do the screens show for `O=C1CC(N2CCN(S(=O)(=O)c3ccccc3F)CC2)C(=O)N1c1ccccc1Cl` (configuration not stated)?
TRPV1 PAM: 1.5; ClpP mod: 1.1%; TRPML1 blocker: -14.3; TRPML1 agonist: 1.4; PINK1 expr mod: -0.4%

How did CC(C)Oc1ccc(/C=C(/NC(=O)c2ccccc2)C(=O)NC(Cc2ccccc2)C(=O)O)cc1 (configuration not stated) do in these assays?
TRPV1 PAM: -4.6; TRPML1 blocker: 19.8; Sfp inh: 10.3%; TRPML1 agonist: 1.5; Menin MLL FP FL: -5.3; PINK1 expr mod: 1.1%

Results for COc1ccc(NC(=O)C2CCN(S(=O)(=O)c3ccc4c(c3)CC(C)N4C(C)=O)CC2)c(OC)c1 (configuration not stated) ?
TRPV1 PAM: 9.9; ClpP mod: -1.3%; TRPML1 blocker: -24.6; Sfp inh: 11.7%; TRPML1 agonist: 0.7; Menin MLL FP FL: -0.6; PINK1 expr mod: 0.5%

What do the screens show for `COC(=O)c1cccc(NC(=O)C2COc3ccccc3O2)c1C` (configuration not stated)?
TRPV1 PAM: 6.4; ClpP mod: inconclusive; TRPML1 blocker: 27.1; Sfp inh: 8.3%; TRPML1 agonist: 0.6; Menin MLL FP FL: 1.7; PINK1 expr mod: 1.7%

Results for COc1cccc(NC(=O)C(c2ccccc2)N2CCNC(=O)C2)c1 (configuration not stated) ?
TRPV1 PAM: 3.2; Sfp inh: 19.7%; Menin MLL FP FL: -4.7

How did CC1(Cc2cc(Cl)ccc2C(F)(F)F)C(=O)Nc2ccc(OC(F)(F)F)cc21 (configuration not stated) do in these assays?
ClpP mod: 2.5%; TRPML1 blocker: -19.4; TRPML1 agonist: -0.1; PINK1 expr mod: -1.6%

What do the screens show for `O=C(Cn1ccn(-c2ccc(F)cc2)c(=O)c1=O)NCCc1ccccc1`?
ClpP mod: -2.6%; TRPML1 blocker: -3.0; TRPML1 agonist: 1.8; PINK1 expr mod: 0.4%

How did Cc1cccc(C)c1NC(=O)CC1SC2=NCCN2C1=O (configuration not stated) do in these assays?
TRPV1 PAM: 5.2; ClpP mod: -1.6%; TRPML1 blocker: -7.7; Sfp inh: -16.7%; TRPML1 agonist: 0.3; Menin MLL FP FL: 0.7; PINK1 expr mod: -0.4%

Results for COc1ccc(CN2CCN(Cc3c[nH]c4ccccc34)CC2)cc1 ?
TRPV1 PAM: -3.7; TRPML1 blocker: -6.5; Sfp inh: 50.1µM*; TRPML1 agonist: 1.2; Menin MLL FP FL: -1.3; PINK1 expr mod: -0.5%

How did Cc1ccc(-c2csc(/C(C#N)=C(\O)CCl)n2)cc1 do in these assays?
TRPV1 PAM: -5.5; TRPML1 blocker: -9.9; Sfp inh: 3.9%; TRPML1 agonist: 0.4; Menin MLL FP FL: 8.9; PINK1 expr mod: 2.5%

What do the screens show for `COC(=O)[C@@H]1OC(=O)[C@H]2O[C@@]23[C@@]1(C)CC[C@@H]1[C@@]2(C)C=CC(=O)OC(C)(C)[C@@H]2CC(=O)[C@]13C`?
TRPV1 PAM: 24.8; ClpP mod: -0.5%; TRPML1 blocker: -10.2; TRPML1 agonist: -0.3; PINK1 expr mod: 1.0%

What do the screens show for `O=C(CSc1ccc2nnc(-c3cccnc3)n2n1)N1CCOCC1`?
TRPV1 PAM: -9.3; ClpP mod: 4.8%; TRPML1 blocker: 1.5; Sfp inh: 23.7%; TRPML1 agonist: -0.6; Menin MLL FP FL: 1.2; PINK1 expr mod: -1.0%

What do the screens show for `CC1(C(=O)NCCN2CCOCC2)C=CC2(CCCCC2)N1C(=O)c1ccccc1` (configuration not stated)?
TRPV1 PAM: -7.7; ClpP mod: 0.8%; TRPML1 blocker: -10.3; Sfp inh: 5.7%&26.1%; TRPML1 agonist: -0.7; Menin MLL FP FL: 2.6&-0.4; PINK1 expr mod: 0.4%

Results for COc1cccc(NC(=O)C23CCC(C)(C(=O)O2)C3(C)C)c1 (configuration not stated) ?
TRPV1 PAM: -1.7; ClpP mod: -1.8%; TRPML1 blocker: 10.3; Sfp inh: inconclusive; TRPML1 agonist: -0.6; Menin MLL FP FL: 3.2; PINK1 expr mod: -1.1%

What do the screens show for `CC1CCN(C(=O)c2c(NC(=O)c3ccccc3Cl)sc3c2CCC(C(C)(C)C)C3)CC1` (configuration not stated)?
ClpP mod: 1.1%; TRPML1 blocker: -1.4; TRPML1 agonist: -0.2; PINK1 expr mod: -0.1%

Results for O=[N+]([O-])c1ccc(N2CCOCC2)cc1N1CCCCC1 ?
TRPV1 PAM: -15.3; ClpP mod: -0.9%; TRPML1 blocker: -14.1; Sfp inh: -6.7%; TRPML1 agonist: -0.3; Menin MLL FP FL: -1.3; PINK1 expr mod: 0.1%

How did COc1ccc(S(=O)(=O)N2CCC(C(=O)NCC3CCCCC3)CC2)cc1 do in these assays?
TRPV1 PAM: -32.6; TRPML1 blocker: 17.9; Sfp inh: 5.1%; TRPML1 agonist: -0.2; Menin MLL FP FL: 1.3; PINK1 expr mod: 2.0%

How did CCCCNC(=O)CN(C1CCCCC1)S(C)(=O)=O do in these assays?
TRPV1 PAM: 4.4; ClpP mod: 0.3%; TRPML1 blocker: -8.5; Sfp inh: 16.7%; TRPML1 agonist: 0.0; Menin MLL FP FL: 3.8; PINK1 expr mod: 8.1%[38.3 µM]

How did O=C(COc1ccccc1Cl)Nn1cnnc1 do in these assays?
TRPV1 PAM: -5.7; ClpP mod: -0.3%; TRPML1 blocker: 23.6; Sfp inh: 0.4%; TRPML1 agonist: 1.0; Menin MLL FP FL: -0.1; PINK1 expr mod: -2.0%

How did Cc1cccc(C2N=C(N)Nc3nc4ccccc4n32)c1 (configuration not stated) do in these assays?
TRPV1 PAM: 0.0; ClpP mod: 25.1µM*!; TRPML1 blocker: 3.9&-4.0; Sfp inh: 15.7%; TRPML1 agonist: 0.0&0.6; Menin MLL FP FL: 5.1; PINK1 expr mod: 1.9%&0.0%

No enrichment for hits; any-hit rate near 4.4%.
